High-throughput results as filed in PubChem.
Hsc70 ATP site: Hsc70 inhibitors, probe displacement, primary screen, biochemical, fluorescence polarization (AID 568); 83,000 tested, under 10 active; Hsc70 fluorescence polarization, probe displacement; higher % means a stronger effect; strong numbers were not always called active; one-dose displacement, % at 20 µM; IC50 in µM for titrated hits;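 active = displacement above 50% without optical interference and an IC50 on retest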;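 also: ATPase domain with a fluorescein-tagged ATP probe; 0% = vehicle and 100% = excess ADP; read after one hour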
WNV NS2B-NS3 inh: blocks West Nile virus NS2B-NS3 protease activity; WNV NS2B-NS3 protease, fluorogenic substrate Ex360/Em465; stronger effect = lower value; z-score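 (tested at a level between 10 and 100 µM)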; hit rate 0.18% among 65,000; P06935; AID 577;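 active = z-score at -3 or under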;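 also: score is relative to mean and spread of the compound wells of a plate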
Target sequence (P06935 1371-1501 limits assumed): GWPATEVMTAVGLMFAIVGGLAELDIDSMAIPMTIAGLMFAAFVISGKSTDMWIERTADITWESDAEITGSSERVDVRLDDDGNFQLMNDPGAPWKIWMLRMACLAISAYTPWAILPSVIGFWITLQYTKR
Target sequence (P06935 1502-1679 limits assumed): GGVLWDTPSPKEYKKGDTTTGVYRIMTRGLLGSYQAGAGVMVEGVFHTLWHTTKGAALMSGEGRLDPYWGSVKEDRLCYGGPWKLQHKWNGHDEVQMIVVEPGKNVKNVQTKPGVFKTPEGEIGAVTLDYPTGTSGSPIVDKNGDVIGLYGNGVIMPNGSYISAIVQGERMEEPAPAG
MT1-MMP promoter: MT1-MMP gene expression reporter suppression – cell-based, luciferase reporter, luminescence (AID 618); MT1-MMP promoter luciferase reporter cells, luminescence; calls from a first round at 10 µM; hits with a dose series show EC50 in µM; hit rate 0.62% among 87,000;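 active = over half of the reporter light lost at 10 µM or EC50 under 50 µM; inactive = the rest and hits that failed the dose series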;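 also: actives suppress MT1-MMP promoter-driven transcription so potencies describe inhibitors; HT1080 fibrosarcoma cells; overnight exposure; toxic or luciferase-blocking compounds were not removed from the actives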
Active calls of the source: *; i = inactive; . = no result given; + = active, no number. This is a subset. The share of hits here may be higher or lower than overall.

Screens in order: Hsc70 ATP site, WNV NS2B-NS3 inh, MT1-MMP promoter
- CN(CCCNC(=O)c1ccc(N2CCCC2=O)cc1)c1ccccc1
→ -2.1%, -1.3, i
- CCOC(=O)C1CCN(C(=O)COc2cccc(C)c2)CC1
→ 1.0%, -0.94, i
- COCCNC(=O)c1cc2c(=O)n3cccc(C)c3nc2n(Cc2ccncc2)c1=N
→ -0.1%, 1.6, i
- CCOC(=O)N1CCC(NC(=O)c2cc(C(=O)Nc3ccc(F)cc3F)ccc2CO)CC1
→ 1.2%, 0.32, i
- Cc1ccc(S(=O)(=O)N2CCCCC2C(=O)N2CCN(c3ccccc3F)CC2)cc1 (stereo unspecified)
→ 0.6%, ., i
- CCN1C(=O)c2ccc(-c3nc4ccccc4c(=O)o3)cc2C1=O
→ 5.0%, 2, i
- CNC(=O)CSc1nnc(-c2ccco2)n1-c1ccccc1OC
→ -1.2%, 1, i
- c1ccc2c(c1)OCC(c1nn3c(Cn4nnc5ccccc54)nnc3s1)O2 (stereo unspecified)
→ -6.5%, 0.41, i
- Cc1ccc(NC(=O)N2CCC(NC(=O)C(C)(C)C)CC2)cc1
→ -0.8%, ., i
- CC(=O)N1CCN=C1SCc1c(F)cccc1Cl
→ -1.2%, 2, i
- O=C1CC(N2CCC(c3nc4ccccc4[nH]3)CC2)C(=O)N1Cc1ccccc1 (stereo unspecified)
→ 0.9%, 0.48, i
- O=C(O)CC1S/C(=N/N=C/c2ccc(-c3ccc(Cl)cc3[N+](=O)[O-])o2)NC1=O (stereo unspecified)
→ 0.7%, ., i
- O=c1c2c(nc3nc(COc4ccccc4)[nH]n13)CCC2
→ 1.9%, -0.18, i
- CCOC(=O)c1c(C)oc2ccc(NS(=O)(=O)c3cccs3)cc12
→ 2.7%, ., i
- Brc1cc2[nH]cnc2c2ccccc12
→ -3.3%, -0.06, i
- Brc1cc(Br)c2nc(-c3cccs3)ccc2c1
→ -2.3%, ., i
- c1ccc(-c2nc(NCc3ccco3)c3ccccc3n2)nc1
→ -0.3%, -0.29, i
- COCCNC(=O)Cn1cnc2sc(C)c(S(=O)(=O)N3CCC(C)CC3)c2c1=O
→ -7.2%, -0.35, i
- Cc1ccc(-n2c(SCC(N)=O)nc3c([nH]c4ccccc43)c2=O)cc1
→ 2.8%, -1.2, i
- COc1ccc(NC(=O)N[C@@H](CCSC)C(=O)O)cc1Cl
→ -1.1%, 0.09, i

Record cards, as listed above. Order of values: Hsc70 ATP site | WNV NS2B-NS3 inh | MT1-MMP promoter
`Brc1cc2[nH]cnc2c2ccccc12` as listed: -3.3% | -0.06 | i
`CNC(=O)CSc1nnc(-c2ccco2)n1-c1ccccc1OC` as listed: -1.2% | 1 | i

Next part
Screens in order: Hsc70 ATP site, WNV NS2B-NS3 inh, MT1-MMP promoter
- CC(C)C(c1nnnn1C(C)(C)C)N1CCN(c2cccc(Cl)c2)CC1 (stereo unspecified)
→ -6.3%, 0.78, i
- COc1cccc(NC2c3ccccc3C(=O)N2Cc2ccco2)c1 (stereo unspecified)
→ -4.1%, 0.7, i
- COC(=O)c1ccccc1NC(=O)C1CCCN(S(=O)(=O)c2ccc(F)cc2)C1 (stereo unspecified)
→ 2.4%, -1.4, i
- c1ccc(-c2cn3nc(-c4ccccc4)sc3n2)cc1
→ 5.1%, 1.3, .
- CCOc1ccc(C2CC(c3ccccc3C)n3nc(N)nc3N2)cc1 (stereo unspecified)
→ 2.0%, 1.8, i
- COc1ccccc1N1CCN(C2=NS(=O)(=O)c3ccccc32)CC1
→ -4.1%, 0.01, i
- C/C(Cl)=C\Cn1c(Nc2cccc(C)c2)nc2c1c(=O)n(C)c(=O)n2C
→ -9.6%, -0.12, i
- O=C1C(Cl)=C(N2CCOCC2)C(=O)N1c1cccc(Cl)c1
→ -1.1%, 0.83, i
- CCC(C)n1[nH]c(=O)c2c(C)cc(C)nc21 (stereo unspecified)
→ -1.1%, 0.11, i
- Nc1nc(-c2ccco2)nn1C(=O)CCc1ccccc1
→ 3.8%, -0.52, i
- CCOC(=O)c1[nH]c(C)c(/C(O)=C2\C(=O)C(=O)N(CCCN3CCOCC3)C2c2cccnc2)c1C (stereo unspecified)
→ 4.7%, -0.14, i
- O=C(NCCSCc1ccco1)Nc1ccc(Cl)cc1
→ 6.4%, 0.62, i
- Cc1cc(C(=O)CN2C(=O)NC3(CCCc4ccccc43)C2=O)c(C)n1Cc1ccccc1 (stereo unspecified)
→ -3.2%, ., i
- O=C(CSc1nnnn1-c1ccc2c(c1)OCCO2)Nc1nc2c(s1)CCCC2
→ 3.3%, -0.84, i
- CN1C(=O)C2(N=c3ccccc3=N2)c2ccccc21
→ 3.3%, 0.3, i
- COC(=O)c1sc(NC(=O)c2ccc(Cn3cc(Cl)cn3)o2)c(C#N)c1C
→ -14%, -2, i
- C=CCn1c(SCC(=O)Nc2ccccc2C)nc2sc(C)c(C)c2c1=O
→ 1.5%, ., i
- CN(C)S(=O)(=O)c1ccc(C(=O)Nc2ccc(CN3CCCC3)cc2)cc1
→ -1.6%, 0.37, i
- CC(=C1C(=O)c2ccccc2C1=O)N1CCC(C(N)=O)(N2CCCCC2)CC1
→ -2.5%, 0.85, i
- Cc1c2c(nc3c(C(=O)NC4CCCC4)cnn13)CCCC2
→ 5.7%, 0.84, i

An excerpt from above in order of SMILES length, falling.
Screens in order: Hsc70 ATP site, WNV NS2B-NS3 inh, MT1-MMP promoter
- O=C(O)CC1S/C(=N/N=C/c2ccc(-c3ccc(Cl)cc3[N+](=O)[O-])o2)NC1=O (stereo unspecified)
→ 0.7%, ., i
- COc1cccc(NC2c3ccccc3C(=O)N2Cc2ccco2)c1 (stereo unspecified)
→ -4.1%, 0.7, i
- CC(=O)N1CCN=C1SCc1c(F)cccc1Cl
→ -1.2%, 2, i

(listing goes on)
Screens in order: Hsc70 ATP site, WNV NS2B-NS3 inh, MT1-MMP promoter
- CC(=O)Nc1cc(C(=O)O)ccc1S(=O)(=O)c1ccc(C)cc1
→ 1.6%, -0.45, i
- CCCSc1nc(C)c2cc(C)cc(C)c2n1
→ 1.3%, ., i
- CCC(=O)Nc1nnc(-c2ccco2)o1
→ -3.1%, -0.54, i
- CC1CN(S(=O)(=O)c2ccc(NC(=O)CCN3C(=O)c4ccccc4C3=O)cc2)CC(C)O1 (stereo unspecified)
→ -2.3%, -0.83, i
- COc1ccc2c(c1)CCc1c(C(=O)NCc3ccc(Cl)cc3)noc1-2
→ 4.0%, ., i
- O=C1CC2(CCCCC2)Oc2ccc(OCC(=O)N3CCOCC3)cc21
→ -0.2%, 0.3, i
- COC(=O)c1[nH]c2ccc(F)cc2c1NC(=O)CCN1CCN(Cc2ccc3c(c2)OCO3)CC1
→ -0.4%, 0.52, i
- CCOc1ccc(CCNC(=O)C(C)n2nc(C)n3c(cc4occc43)c2=O)cc1OCC (stereo unspecified)
→ 2.1%, -0.73, i
- CC1(C)CCN(Cc2ccccc2)C1CC#N (stereo unspecified)
→ 0.2%, -0.19, i
- COC(=O)CNC(=O)CN1C(=O)N(c2ccccc2)C(N(O)C(=O)Nc2ccccc2)C1(C)C (stereo unspecified)
→ 2.5%, ., i
- Cn1cc(S(=O)(=O)CC(=O)N2CCCc3ccccc32)c2ccccc21
→ 3.2%, -2.1, i
- C=CCOc1ccc(C2NC(=O)NC(C)=C2C(=O)OC)cc1 (stereo unspecified)
→ -9.1%, 0.06, i
- Cc1cc(C)cc(-c2nnc(SCC(=O)N3CCN(C(=O)c4ccco4)CC3)o2)c1
→ -1.7%, -0.4, i
- O=C(C(Cc1ccccc1)n1cccc1)N1CCN(Cc2ccccc2)CC1 (stereo unspecified)
→ -0.8%, 0.95, i
- O=C1c2ccccc2C(=O)N1CCCCSc1nc2ccccc2o1
→ -2.4%, ., i
- CCCNC(=O)NCCc1c(C)[nH]c2ccccc12
→ 4.3%, -1.1, i
- Cc1cc(C)n(C2CCCCC2OC(=O)c2ccccc2)n1 (stereo unspecified)
→ -6.9%, -1.6, i
- COc1nc(-c2ccc(Cl)cc2)ccc1-c1noc(-c2ccco2)n1
→ -12%, 0.81, i
- CCOc1ccccc1-n1c(SCC(=O)N2CCCC2)nnc1-c1ccc(O)cc1
→ -2.2%, ., i
- Cc1ccc2[nH]c3c(c2c1)CN(C(=O)CN1CCN(Cc2ccc4c(c2)OCO4)CC1)CC3
→ 2.8%, 0.29, i
- N#CCSc1nc2cc(C(=O)N3CCC(C(N)=O)CC3)ccc2c2nc3ccccc3n12
→ 3.3%, -0.12, i
- COc1cc2[nH]c(=O)n(Cc3ccc(C(=O)NC4CCCC4)cc3)c(=O)c2cc1OC
→ -0.4%, ., i
- CNc1nc(SC)nc(N(C#N)CC(=O)OC)n1
→ -1.7%, ., i
- O=C(NC1=NCCS1)c1ccc(Cl)s1
→ 1.3%, -0.93, i
- C=C(C)C1CC=C(CN2CC(C)OC(C)C2)CC1 (stereo unspecified)
→ -2.1%, ., i
- COc1ccc(-c2noc(CSc3nnc(-c4ccncc4)n3-c3ccc(F)cc3)n2)cc1OC
→ 8.5%, 0.11, i
- Cc1cc(C)n(-c2cc(-c3ccccc3)nc(C)n2)n1
→ -8.5%, -0.29, i
- O=C(Nc1ccccc1)c1cnc2n(c1=O)CCS2
→ 13%, -0.14, i
- CCOc1c(CNCCNC(=O)c2nonc2N)cccc1OC
→ -6.5%, -0.04, i
- Cc1ccc(S(=O)(=O)CCC(=O)c2ccc(O)cc2O)cc1
→ -6.4%, 1.4, i
- COc1ccc(S(=O)(=O)Cc2ccc(C(=O)N3CCC(C(N)=O)CC3)o2)cc1
→ -2.3%, -0.97, i
- COC(=O)c1cc(OC)c(OC)cc1NC(=O)c1ccco1
→ -6.4%, 1.4, i
- Cc1c(C(=O)N2CCCCC2)oc2ccc(S(=O)(=O)N3CC(C)CC(C)C3)cc12 (stereo unspecified)
→ -3.6%, -1.1, i
- Cc1ccc2oc(=O)c3cc(C(=O)N4CCN(C(=O)c5ccco5)CC4)sc3c2c1
→ -1.5%, -0.64, i
- CCC(C)(C)NC(=O)C(c1cccn1C)N(C(=O)Cn1nnc2ccccc21)c1ccccc1OC (stereo unspecified)
→ 0.3%, -1, i
- O=C(Nc1ccc(N2CCCCC2)cc1)c1cccnc1
→ -3.0%, -0.26, i
- COC(=O)c1cc(NC(=O)c2nccnc2C(=O)O)cc(C(=O)OC)c1
→ -4.1%, 1, i
- Nc1nc(-c2cccnc2)nn1S(=O)(=O)c1ccccc1
→ -5.5%, -1.3, i
- O=C(c1cccn2c(=O)c3ccccc3nc12)N1CCN(Cc2ccc3c(c2)OCO3)CC1
→ 3.9%, -0.98, i
- CC(=O)Nc1ccc(OCC(O)Cn2nc(C)nc2C)cc1 (stereo unspecified)
→ 1.0%, -1.2, i
- CN1CCN(c2ncnc3c2cnn3-c2ccc(Cl)cc2)CC1
→ 7.5%, -0.31, 3.9µM*
- COc1ccc(N(CC(=O)NCc2ccc3c(c2)OCO3)S(C)(=O)=O)cc1OC
→ 0.9%, ., i
- N#Cc1ccc(Oc2cccnc2)cc1C#N
→ 0.9%, -0.57, i
- COC(C(=O)Nc1ccc(F)cc1F)c1ccccc1 (stereo unspecified)
→ 5.1%, ., i
- O=C(COc1ccc(-n2cnnn2)cc1)NC1CCCCC1
→ 2.8%, -0.72, i
- CC(C)C(=O)Nc1ccccc1N1CCN(S(C)(=O)=O)CC1
→ -7.2%, -1.1, i
- COc1ccc(OCc2cccc(C(=O)O)c2)cc1
→ -0.7%, -1, +
- CC(C)Cn1c(=O)c(C2=NS(=O)(=O)c3ccccc3N2)c(O)c2ccccc21
→ -1.1%, -0.46, i
- O=C(Cn1c(=O)oc2ccccc21)Nc1ccc(S(=O)(=O)N2CCCCC2)cc1
→ 0.3%, -0.46, i
- CC1CCN(Cc2nc3c(c(=O)n(C)c(=O)n3C)n2CCN2CCOCC2)CC1
→ 0.8%, -0.73, i

Other compounds follow.
Screens in order: Hsc70 ATP site, WNV NS2B-NS3 inh, MT1-MMP promoter
- O=C(C(Cc1ccccc1)N1C(=O)C2C3C=CC(C3)C2C1=O)N1CCCCCC1 (stereo unspecified)
→ 4.7%, 1.4, i
- Cc1occc1C(=O)N1CCN(c2ccc(Cl)c(Cl)c2)CC1
→ 4.7%, -0.72, i
- O=C(CSc1nnc(-c2ccccc2Cl)n1Cc1ccco1)Nc1ccc2c(c1)OCCO2
→ -1.2%, -0.58, i
- Cc1nnc(SCC(=O)NCC2CCCO2)n1-c1ccccc1 (stereo unspecified)
→ 2.6%, 1.8, i
- CCOC(=O)N1CCC(c2[nH][nH]c(=O)c2C)CC1
→ -1.5%, 0.59, i
- Cc1cc(C)n(C(=O)CNC(=O)c2ccc3c(c2)OCCO3)n1
→ 7.9%, 0.11, i
- COc1ccccc1OCC(=O)N(Cc1nc(-c2ccccc2)no1)C1CCCCC1
→ 0.5%, 0.45, i
- CC(C)N(C)C1CCN(C(=O)Nc2ccc(Cl)cc2)CC1
→ -3.2%, 0.12, i
- CC1=C(C(=O)Nc2ccccc2C)C2(CCCC2)C(C(N)=O)C(=O)N1 (stereo unspecified)
→ -0.5%, 0.18, i
- O=C(Nc1ccc(-c2cn3ccsc3n2)cc1)C1COc2ccccc2O1 (stereo unspecified)
→ 0.2%, 1.5, i
- CC1=C(C#N)C(NC(=O)C(C)(C)C)(C(F)(F)F)C(=O)N1 (stereo unspecified)
→ 2.5%, ., i
- CCOC(=O)C1CCN(CC(=O)Nc2c(C(=O)OC)n(C)c3cccc(C)c23)CC1
→ -2.0%, 0.36, i
- Cc1ccc(C(=O)N2CCCC2)cc1S(=O)(=O)Nc1ccccc1
→ -4.0%, 0.21, i
- CCCc1cc(=O)[nH]c(SCC(=O)c2cc(C)n(C(C)COC)c2C)n1 (stereo unspecified)
→ 5.8%, 1.7, i
